Vif TR-FRET – inhibitors of Vif binding to APOBEC3G peptide, primary screen, biochemical, TR-FRET, GST-Vif 1-94, biotin-A3G peptide, dose response retest (AID 1117319). Virion infectivity factor (Human immunodeficiency virus type 1 group M subtype B (isolate …. TR-FRET GST-Vif / biotin-A3G peptide binding; higher % means a stronger effect; test concentration not given here; strong numbers were not always called active. inhibition, %, or IC50 in µM where a hit was titrated. 260,000 tested, 0.57% active;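 active = above the screen mean plus three standard deviations and confirmed in dose response; inconclusive = results disagree or hit not tested in dose response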;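 also: Vif residues 1-94 fused to GST binding biotinylated APOBEC3G peptide 110-148; 0% = full assay without inhibitor and 100% = GST in place of GST-Vif; retest series ran down from 100 µM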
Calb FLC – C. albicans growth inhibition with fluconazole, primary screen, CaCi-2 strain, Alamar Blue fluorescence | C. albicans CaCi-2 (fluconazole-resistant clinical isolate) + fluconazole, 48 h | growth inhibition, % (concentration not given with the values) | 300,000 tested, 0.57% active | AID 1979, 2009;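 active = most replicates above 75%; inconclusive = exactly half above 75%; inactive = most below 75%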;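 also: all wells also contain fluconazole at 8 µg/ml as a sub-toxic cotreatment; 0% = median of DMSO wells and 100% = median of geldanamycin control wells; wells of about 8 µL received 7.5 nL stock; the first replicate is given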
T cruzi inh – inhibitors of intracellular T. cruzi growth, primary screen, luminescence, NIH3T3 host cells | T. cruzi beta-gal in NIH3T3, 90 h | inhibition, % (test concentration not listed) | 300,000 tested, 1.4% active | AID 1885, 2009;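 active = mean inhibition across valid replicates above about 55%, limit read from the data; inconclusive = mean below that limit but half or more replicates reach it; inactive = mean below it, under half of replicates reach it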;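 also: signal also drops with host cell toxicity which is not excluded here; 0% = plate median of DMSO wells and 100% = zero luminescence signal; higher percent means less beta-gal luminescence so fewer parasites; stock transfer was 50 nL into about 50 µL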
Bfl-1 A1 inh – caspase 3/7 activation in MEF A1-2A-BIM cells, primary screen, A1 inhibitor project, cell-based, luminescence, HTS; Caspase-Glo 3/7 luminescence, 3 h; percent of clofoctol response, vehicle zero; caspase activation, % (no concentration beside the values); AID 2462, 2010; 330,000 tested, 0.066% active;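 active = over half of replicate activation scores above 10%, or exactly half above 10 with the replicate mean above 10; inconclusive = replicate mean below 10 yet half the replicates above 10; inactive = over half of replicates below 10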;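 also: wells of about 30 µL received 50 nL stock; many hits fall short of the cut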
AF4-AF9 inh – inhibitors of AF4 peptide binding to AF9, primary screen, biochemical, AlphaScreen, biotin-AF4 peptide, FLAG-AF9, single point | inhibition, % at 10 µM | 350,000 tested, 0.47% active | Protein AF-9 (Homo sapiens), P42568;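 active = every replicate reaching a set inhibition limit, whatever the replicate mean, cut at about 25% in these data; inconclusive = mean inhibition reaches that limit but some replicates miss it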;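 also: 0% = plate neutral control median and 100% = total signal loss; the record names both 10 and 1 µM as test concentration; the first replicate is given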
Target sequence (P42568 whole entry, looked up): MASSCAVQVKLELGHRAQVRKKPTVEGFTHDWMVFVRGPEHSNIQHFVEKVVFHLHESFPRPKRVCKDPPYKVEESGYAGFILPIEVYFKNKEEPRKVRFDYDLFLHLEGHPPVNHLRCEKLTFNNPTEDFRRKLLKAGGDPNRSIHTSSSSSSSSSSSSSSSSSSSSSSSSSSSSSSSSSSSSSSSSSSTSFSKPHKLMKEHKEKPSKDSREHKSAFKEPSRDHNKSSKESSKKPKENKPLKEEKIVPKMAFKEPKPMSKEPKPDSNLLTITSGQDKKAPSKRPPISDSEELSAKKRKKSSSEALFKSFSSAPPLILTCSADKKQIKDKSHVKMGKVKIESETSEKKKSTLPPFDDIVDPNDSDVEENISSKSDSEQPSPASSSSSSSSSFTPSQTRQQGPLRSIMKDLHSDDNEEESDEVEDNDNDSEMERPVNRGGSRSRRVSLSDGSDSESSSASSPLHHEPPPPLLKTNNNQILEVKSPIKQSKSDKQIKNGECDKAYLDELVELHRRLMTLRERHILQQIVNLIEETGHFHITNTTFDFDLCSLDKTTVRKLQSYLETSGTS
RanGTP-Impb inh – inhibitors of RanGTP-importin-beta interaction, primary screen, biochemical, FRET, CFP-Ran, YFP-importin-beta, homogeneous; AID 2216, 2009; 300,000 tested, 1.1% active; cell-free CFP-Ran/YFP-importin-beta FRET ratio; Ran GTPase (GTP-bound) - importin-beta complex; inhibition, % (concentration not given with the values);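 active = most replicates above 15%; inconclusive = exactly half above 15%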;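 also: 0% = DMSO wells and 100% = Ran loaded with GDP instead of GTP; wells of about 40 µL received 100 nL stock; the first replicate is given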
Ecoli rRNA inh – reduced GFP signal of wild-type E. coli, primary screen, bacterial rRNA inhibitor project, GFP/RFP fluorescence, OD600, single point | E. coli WT GFP vs humanized-ribosome RFP mutants, 24 h; active compounds read low; DMSO median 0, no signal -100 | GFP signal change (wild-type ribosome), % (test concentration not listed) | 350,000 tested, 1.6% active;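 active = significant combined selectivity score with lowered wild-type GFP, culture density cut under 30%, mutant RFP and density less affected; inactive = any of these conditions unmet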; also: one replicate is shown; some compounds called inactive have numbers as strong as hits
Beta apoptosis – inhibitors of cytokine-induced beta cell apoptosis, primary screen, luminescence; protection from apoptosis, % (test concentration not listed); 300,000 tested, 0.8% active; INS-1E cytokine-induced death, ATP luminescence, 48 h; percent of positive-control rescue, neutral wells zero;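 active = all replicates at 75% or more, or half of them and the mean; inconclusive = half reach 75% but not the mean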;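 also: 0% = cytokine-treated negative control wells and 100% = positive control rescue; higher means more ATP so stronger rescue from cytokine killing; wells of about 40 µL received 100 nL stock; the first replicate is given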
Ecoli rRNA inh OD600 – second read-out of Ecoli rRNA inh, no call of its own (marks repeat the call); OD600 change, %; measured here: OD600 growth;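 optical density of the mix in the first replicate; 0 = DMSO median and -100 = no signal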
Ecoli rRNA inh RFP – also measured in Ecoli rRNA inh; calls as there; RFP signal change, %; measured here: RFP humanized mutant strains;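 first replicate; 0 = DMSO median and -100 = no signal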
* marks the source's active call; other numbers are inactive results; u = inconclusive; x = no result given; & = joins results of further samples.

SMILES | Vif TR-FRET | Calb FLC | T cruzi inh | Bfl-1 A1 inh | AF4-AF9 inh | RanGTP-Impb inh | Ecoli rRNA inh | Ecoli rRNA inh OD600 | Ecoli rRNA inh RFP | Beta apoptosis
O=C(Nc1ccc(Cl)cc1Cl)c1ccc2ncsc2c1 | -20% | -13 | -2 | -1.3 | -0.9 | 0.1 | 2 | -3 | -5.4 | 2
COC(=O)c1cc([N+](=O)[O-])c(-n2ccnc2)c([N+](=O)[O-])c1 | u | 1 | -10 | 0.6 | -1.9 | 0.8 | x | x | x | -10
CCN1C(=O)[C@H]2[C@@H](c3ccc(-c4ccc(OC)cc4)c(OC)c3)N[C@@](C)(C(=O)OC)[C@H]2C1=O | x | -5 | 6 | -0.1 | -3.0 | u | 1 | -6 | 1.8 | x
COc1ccccc1C1CCN(Cc2ccc3ccccc3c2)CC1 | 1% | 1 | 59* | 1.5 | 6.9 | 1.0 | -29 | -66 | -1.4 | 13
COCCn1c(=O)[nH]c2cc(C(=O)NC(C)C)ccc2c1=O | 7% | 19 | 3 | -0.7 | x | 0.7 | x | x | x | -1
O=C(O)COCC(=O)N1CCCN(c2ccc(C(F)(F)F)cn2)CC1 | -5% | 4 | -8 | 0.6 | -0.7 | -2.4 | 9 | 16 | -0.1 | -4
CCOC(=O)Cc1csc(NC(=O)CCCCCN2C(=O)c3ccccc3C2=O)n1 | 9% | -5 | -20 | 1.7 | x | 4.8 | 1 | -3 | 2.3 | -4
COc1ccc(NC(=O)c2ccccc2N(Cc2ccccc2)S(C)(=O)=O)cc1 | -13% | 15 | 11 | -0.2 | 6.1 | -2.0 | -17 | -16 | 0.6 | -3
COCCN1CCCC(CNCc2cn(C)nc2-c2ccc(Oc3ccccc3)cc2)C1 (stereo unspecified) | 8% | -23 | 43 | 0.2 | 16 | u | 3 | 0 | 4.6 | 4
C[C@H](NC(=O)Cc1cccc2ccccc12)C(=O)N1CCOCC1 | -3% | x | x | 0.3 | -1.9 | x | 12 | 9 | 0.5 | -3
Cc1cc(=O)n2nc(N3CCCC(C(=O)NCc4ccccc4C)C3)sc2n1 (stereo unspecified) | x | -8 | 5 | -0.5 | 0.6 | -1.0 | 0 | -3 | -1.7 | -1
CCCCn1c(N)c(N(CCOC)C(=O)CCC2CCCCC2)c(=O)[nH]c1=O | -8% | x | x | 0.2 | -0.8 | x | 1 | -15 | 2.1 | -20
COCC1CCN(C(=O)c2ccc3oc(CCCc4ccccc4)nc3c2)C1 (stereo unspecified) | 4% | -3 | 8 | -0.3 | -9.3 | 2.2 | -10 | -17 | -0.3 | -3
Cc1c(C(=O)O)oc2ccc(S(=O)(=O)N3CC(C)CC(C)C3)cc12 (stereo unspecified) | 6% | 11 | x | 0.7 | x | x | x | x | x | 0
CCOc1c(Br)cc(C2CC(=O)Nc3cc(OC)c(OC)cc32)cc1OC (stereo unspecified) | x | -1 | 12 | -1.0 | 3.8 | -1.9 | -13 | -21 | 2.1 | 0
Cc1ccccc1-c1nc2cc(Cl)ccc2c(=O)o1 | 4% | -1 | -10 | 0.9 | -4.3 | -0.9 | -6 | -7 | -2.5 | -1
CCCCC(Br)C(=O)Nc1ccc(S(=O)(=O)Nc2cc(C)nc(C)n2)cc1 (stereo unspecified) | x | -3 | -16 | 0.3 | -6.9 | -0.2 | 7 | 3 | -0.7 | -7
CC1CCN(C(=O)c2ccc(S(=O)(=O)N3CCCC3)cc2)CC1 | 5% | x | x | 0.1 | -2.2 | x | 8 | 6 | 1.8 | -2
Cc1oc(C(C)(C)C)cc1C(=O)N1CCN(c2ncccc2C(F)(F)F)CC1 | -3% | 5 | 23 | -0.1 | 3.0 | 2.5 | x | x | x | -5
N#Cc1cc2c(=O)n3ccccc3nc2n(Cc2ccco2)c1=NC(=O)c1ccco1 | 8% | 1 | 16 | -2.3 | 3.2 | 56* | 15 | 11 | 1.9 | 4
O=C(Nc1nccs1)C(=O)c1c[nH]c2ccccc12 | -4% | 7 | -1 | -1.5 | x | -2.5 | x | x | x | x
Cc1sc2nc(CN3CCOCC3)[nH]c(=S)c2c1C | x | 17 | 16 | -0.2 | -4.0 | 4.7 | -53 | -76 | -15 | 7
CC(C)(C)OC(=O)CNC(=O)c1nc[nH]c1C(=O)N1CCNCC1 | x | -16 | -10 | 0.7 | 2.7 | 3.2 | 2 | 5 | -0.5 | 2
O=C(c1ccco1)N1CCN(c2cccc(Cl)c2)CC1 | 0% | 10 | -11 | -0.3 | -39 | 9.8 | -18 | -9 | 1.1 | -5
COc1ccc(NC(=O)c2cc(CC(C)C)on2)cc1OC | 3% | 0 | 0 | -1.0 | -0.1 | 2.0 | -9 | -10 | -8.9 | 3
SMILES | Vif TR-FRET | Calb FLC | T cruzi inh | Bfl-1 A1 inh | AF4-AF9 inh | RanGTP-Impb inh | Ecoli rRNA inh | Ecoli rRNA inh OD600 | Ecoli rRNA inh RFP | Beta apoptosis
Cc1nc(-c2ccc3c(c2)OCCO3)cs1 | 1% | 0 | -3 | -2.6 | -2.6 | 0.2 | 5 | -1 | 0.2 | -10
O=C(Nc1nc2ccccc2s1)C1CCN(C(=O)c2ccco2)CC1 | x | 2 | 0 | -0.5 | 0.9 | 5.4 | -8 | -25 | -2.0 | -5
COc1cc(/C(=C/c2ccccc2)c2ccccc2)c2c(c1)oc1ccccc12 | x | -14 | 3 | 0.1 | 6.5 | -1.9 | 8 | 5 | 10 | 1
Cn1cccc1Cc1nnc(SCC(=O)NCc2ccccc2)n1-c1ccc(F)cc1 | 4% | 35 | -1 | -0.1 | 1.3 | 4.9 | 6 | 12 | 1.2 | 0
COc1ccc(C2OCC3(O)C(c4ccc(OC)c(OC)c4)OCC23)cc1OC (stereo unspecified) | x | 0 | -1 | 1.1 | -1.7 | 5.2 | 2 | -3 | 2.7 | x
Cc1cc(C)c(C)c(S(=O)(=O)N2CCN(C(=S)NCC3CCCO3)CC2)c1C (stereo unspecified) | 1% | -1 | 12 | 0.3 | -0.2 | 1.8 | -28 | -29 | 13 | -3
Cc1ccc(-c2nc(CS(=O)CC(=O)NCCCN3CCN(Cc4ccccc4)CC3)c(C)o2)cc1 (stereo unspecified) | x | 0 | 16 | 0.7 | 5.9 | 2.5 | -10 | -9 | 6.3 | 18
CC1CCC2(CC1)NC(=O)N(CC(=O)c1ccc3c(c1)OCO3)C2=O (stereo unspecified) | 10% | -18 | 1 | -0.1 | -2.4 | 6.6 | 22 | 16 | 2.9 | -3
C/C(=N\O)C1CC(CC(=O)O)C1(C)C (stereo unspecified) | 3% | 0 | -16 | 0.5 | -1.4 | 1.4 | 2 | 14 | 0.3 | -4
COc1ccc2c(c1)c(/C=N/Nc1nc3ccccc3[nH]1)c(C)n2C | 24% | -20 | 50 | -1.2 | 23 | 9.2 | -19 | -16 | -1.9 | 117*
Cc1cc(C)c(O)c(-c2n[nH]c3c2C(c2cccc(O)c2)N(Cc2ccco2)C3=O)c1 (stereo unspecified) | x | 43 | 7 | 0.6 | 4.5 | 4.9 | -57 | -78 | -16 | 7
CCOc1ccccc1C1C(C(N)=O)=C(C)Nc2nc(CCCO)nn21 (stereo unspecified) | u | -4 | 4 | 0.5 | -1.3 | -0.5 | 5 | 10 | -0.1 | -1
Cc1ccc(Cn2ccc(NC(=O)c3nn(C)cc3Cl)n2)cc1 | -8% | -4 | 8 | 0.1 | x | -0.6 | x | x | x | x
O=S(=O)(c1cccc(-c2cn3ccccc3n2)c1)N1CCCCC1 | x | 6 | 5 | -0.1 | -2.9 | u | -6 | -24 | 2.2 | -7
Cc1ccc(S(=O)(=O)NN2C(=O)/C(=C/c3cccnc3)SC2=S)cc1 | -3% | -12 | -1 | -0.5 | -0.4 | 1.6 | -4 | 3 | 7.0 | -3
O=C(NCC1CCCO1)c1cc(-c2ccncc2)nc2ccc(S(=O)(=O)N3CCOCC3)cc12 (stereo unspecified) | 2% | 16 | 0 | -0.9 | x | u | x | x | x | -1
CCCCC(CCC(=O)O)(C(=O)OCC)c1csc(N)n1 (stereo unspecified) | 0% | -8 | -10 | -1.0 | x | 1.2 | x | x | x | -5
CC(C)(C)c1ccc(S(=O)(=O)NCC(=O)N2CCCC2)cc1 | x | 1 | -10 | 0.7 | -3.0 | -2.1 | 2 | 3 | -0.3 | x
CCOC(=O)CN(C(=O)Cn1nnc(-c2ccc(C)cc2)n1)C(CC)C(=O)NC1CCCC1 (stereo unspecified) | 5%&-1% | -9 | 6 | -0.2 | x | 5.7 | x | x | x | -3
COc1cc(Cl)ccc1OCc1cc(C(=O)N2CC[C@@H]3CCCC[C@H]3C2)no1 | x | -16 | 10 | -1.4 | 4.1 | -2.8 | -32 | -42 | 3.5 | 9
Cn1c(NCCCN2CCOCC2)nc2c1c(=O)n(Cc1ccc(Cl)c(Cl)c1)c(=O)n2C | 1% | 61 | 31 | 0.4 | x | u | x | x | x | 0
CCc1ccc(N(CC(=O)Nc2ccc(NC(C)=O)cc2)S(=O)(=O)c2ccccc2)cc1 | 9% | -21 | -3 | 0.7 | -6.2 | 3.3 | 7 | 9 | -12 | 7
Cc1[nH]c2ccc(-c3nnc(SCC(=O)NCc4ccco4)n3Cc3ccccc3)cc2c1C | u | -10 | 31 | -0.7 | x | 0.6 | x | x | x | 4
O=C(CO/N=C/c1ccc(OC(F)F)cc1)NCc1ccco1 | -5% | 12 | -9 | 0.3 | -0.1 | -4.2 | -17 | -8 | -2.1 | -4
CCOc1ccccc1NC(=S)NC(=O)C1CCCCC1 | x | -4 | -17 | -0.4 | -2.9 | -2.9 | -12 | -20 | -2.5 | -1
CN(C)c1nc(NCc2ccccc2)nc(Oc2ccc(=O)[nH]n2)n1 | 2% | 20 | 1 | 2.4 | x | 0.2 | x | x | x | -1
O=S(=O)(c1ccc(N2CCN(CCO)CC2)nc1)N1CCCCC1 | -7% | -18 | -4 | 0.8 | x | 3.8 | x | x | x | -3
O=C(O)CCCn1cc(NC(=O)c2cccc(F)c2)cn1 | x | -5 | -10 | 0.2 | 0.6 | 8.6 | 11 | 5 | 8.4 | -4
Cc1sc(N2C(=O)C3C4C=CC(C4)C3C2=O)c(C#N)c1C (stereo unspecified) | -4% | -1 | -11 | -0.5 | -6.5 | 4.1 | 1 | -2 | -8.4 | -3

Screening data from PubChem BioAssay.

The list is partial; rates above refer to the full screens.
